# Screening results from PubChem BioAssay.
# Tg IFNy HTS = inhibitors of Toxoplasma gondii growth with IFN-gamma; activity change, negative = inhibition, %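 (about 20 µM by stock and volumes)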; actives 3.8% (n = 69,000); Toxoplasma gondii growth in IFN-gamma-treated host cells; active compounds read low; reference of the scale not given here;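 active = below -70%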;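 also: host cells are HeLa cells infected with Toxoplasma gondii; parasite growth read as luciferase light; one replicate is shown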
# * hit, by the source's call; i = inactive; & = joins results of further samples; ! = not active in a repeat.
SMILES,Tg IFNy HTS
Cc1cc(Cl)ccc1OCCCC(=O)N1CCN(C)CC1,15
C[C@H]1CN([C@@H](C)CO)C(=O)CCCn2cc(nn2)CO[C@H]1CN(C)S(=O)(=O)c1cccc(C#N)c1,14
Cc1ccc2nc(CCCNC(=O)c3ccc(C4CCCO4)s3)oc2c1 (stereo not drawn),12
NC(=O)C1CCN(Cn2nnc3ccccc32)CC1,-56
CCn1ccc(C(=O)N(C)C2Cc3ccccc3C2)cc1=O,1
CCOc1ccc2[nH]c(=O)c(CN(CCO)C(=O)c3cccs3)cc2c1,-12
CCCN1CC(NC(=O)c2nc3ccccc3[nH]c2=O)CC1=O (stereo not drawn),-5
CCN1CC[C@@]2(CN(Cc3nccs3)C[C@H]2c2ccccc2)C1=O,-5
COc1ccc(CC(=O)N2CC3(C)CC2CC(C)(C)C3)cc1OC (stereo not drawn),9
CCc1cn[nH]c1C1CCN(C(=O)C2COc3c(cccc3OC)C2)CC1 (stereo not drawn),-1
O=S(=O)(c1cccs1)N1CC[C@H](O)[C@@H]1Cc1ccccc1,1
CCn1cc(C2CC(C(=O)N(C)c3ccccc3)N(C)S(=O)(=O)N2)c(C)n1 (stereo not drawn),18
COc1ccc(-c2nc(C)c(CCNS(=O)(=O)c3ccc4c(c3)OCCO4)s2)cc1OC,198
COc1ccccc1NC(=O)N[C@@H]1CC[C@@H](CCNS(=O)(=O)c2ccc(Cl)cc2)O[C@@H]1CO,-35
CC(C)C[C@H](NC(=O)[C@@H](Cc1c[nH]c2ccccc12)NC(=O)[C@H](Cc1ccc(O)cc1)NC(=O)[C@H](CO)NC(=O)[C@H](Cc1c[nH]c2ccccc12)NC(=O)[C@H](Cc1cnc[nH]1)NC(=O)[C@@H]1CCC(=O)N1)C(=O)N[C@@H](CCCN=C(N)N)C(=O)N1CCC[C@H]1C(=O)NCC(N)=O,3
CN(C)CC1(O)CCCN(C(=O)CCn2ccccc2=O)CC1 (stereo not drawn),15
C[C@@H]1CN([C@H](C)CO)C(=O)c2cc(NC(=O)Cn3cnnn3)ccc2O[C@H]1CN(C)C(=O)Nc1ccc2c(c1)OCO2,0
Cc1ccc2c(n1)N(CCN(C)C)CCN(C(=O)N1CCOCC1)C2,6
CCC1=NOC(CNC(=O)Cc2csc(C)n2)C1 (stereo not drawn),-2
CC(C)[C@H]1COCc2cn(nn2)CCC[C@H](C)C(=O)N1,-26
CN(C)S(=O)(=O)CCNC(=O)C(O)c1ccc(C(F)(F)F)cc1 (stereo not drawn),0
COCCN1CCN(C(=O)c2cccn2C)Cc2cccnc21,-6
Cc1cc(C)c2c(N)c(C(=O)Nc3cccc4ccccc34)sc2n1,2
CN(C)[C@@H]1CCN(C(=O)c2cnccn2)[C@H]1Cc1cnn(C)c1,-1
COc1cc(C(=O)NCCc2csc(-c3cccc(C)c3)n2)cc(OC)c1OC,i
# Next part
SMILES,Tg IFNy HTS
Cc1cccc(C)c1NC(=O)Cn1ncc2c(N3CCCC3)ncnc21,-38
CCn1c(=O)c(C(=O)Nc2cccc(OC)c2)c(O)c2ccccc21,93
CCN(CC)C(=O)CN1C(=O)N2CCN=C2c2ccccc21,12
O=c1oc2ccccc2n1C1CCCN(CC2=Cc3ccccc3OC2)C1 (stereo not drawn),2
CN(C)CC1(O)CCCN(C(=O)c2cnc3ccccn3c2=O)CC1 (stereo not drawn),2
Cc1cnc(N2CCN3C[C@H](OCc4ccccc4F)C[C@@H]3C2)nc1,38
COc1ccccc1CC(=O)N1CCCC2(CNC(=O)O2)C1 (stereo not drawn),-1
CCN(CC)c1ncnc2c1cnn2CC(=O)NC1CC1,130
CCCN(Cc1ccc(OC)cc1)C(=O)c1cnc(OC)nc1,-8
CN(Cc1ccccn1)C(=O)[C@H]1C[C@H]2CCN(Cc3ccco3)C[C@@H]2O1,7
COc1cccc(-c2ccc([C@H]3[C@H](C#N)N(C(=O)Cc4ccncc4)[C@H]3CO)cc2)c1,26
COCCN1C(=O)CCC12CCC(NC(=O)CC1CCCC1)CC2 (stereo not drawn),18
CN(CCOC(=O)Nc1ccc(Cl)cc1)c1ncc(C(F)(F)F)cc1Cl,-69
CSc1cccc(NC(=O)c2nnn(Cc3nc(-c4ccccc4C)oc3C)c2C)c1,7
CN(C)Cc1nc2c(o1)CN(C(=O)NCc1cccc(F)c1)C2,6
Cc1ccc(CNC2=NCCNC23CCN(S(=O)(=O)c2ccc(CC(C)C)cc2)CC3)cc1,-57
NC(=O)C1(N2CCCCC2)CCN(c2ncc(NC(=O)c3ccccc3F)cc2C(=O)O)CC1,5
CCc1ccccc1NC(=O)N1CCC2(CC1)NC(=O)c1ccccc1N2C,-2
CCOc1ccc(Nc2nc(-c3nnc(-c4ccc(Cl)cc4)o3)nc3ccccc23)cc1,112
CN1CCC(CNC(=O)CCC(=O)Nc2cccc(F)c2)C1 (stereo not drawn),-7
Cc1cc(C)c2c(=O)n(Cc3nc(-c4ccc(Cl)cc4)oc3C)c(=O)n(C)c2n1,10
OC[C@H]1[C@@H]2c3ccccc3NC[C@@H]2N1CC1CCOCC1,-19
CCCCOC(=O)NC(Nc1ncccn1)(C(F)(F)F)C(F)(F)F,-19
CC(C)c1ccc(S(=O)(=O)N2C[C@@H]3OCCN(Cc4cnn(C)c4)[C@H]3C2)cc1,0
CCOCc1ncn2c1CN(C(=O)Nc1ccccc1)CC2,10
# New compounds follow.
SMILES,Tg IFNy HTS
CCOC(=O)CSc1nc2ccccc2c(=O)n1CCc1ccc(OC)c(OC)c1,5
N#Cc1ccc(-c2ccc([C@@H]3[C@@H]4CN(C(=O)Nc5ccc6c(c5)OCO6)C[C@H]3N4)cc2)cc1,-50
S=C(NCC1(c2ccccc2)CCOCC1)Nc1ccccc1,-7
COc1ccc(N2C(=O)C3C(C2=O)N2CCCN2C3c2ccccc2OC)cc1 (stereo not drawn),16
Cc1noc(-c2ccc(CSCCC(=O)O)cc2)c1NC(=O)OC(C)c1ccccc1Cl (stereo not drawn),11
Cc1nonc1CN(C)C(=O)c1sc(Cc2ccccc2)nc1C,2
O=C(c1ccc2c(c1)OCO2)N1C[C@@H]2[C@H](c3ccccc31)[C@H](CO)N2C(=O)CC1CC1,-39
O=C1CCC(CCC(=O)N2CCN(c3ccccc3C(F)(F)F)CC2)N1 (stereo not drawn),-9
CCOc1cccc(C2c3[nH]c4ccccc4c3CCN2C(=O)c2cccc(N(C)C)c2)c1 (stereo not drawn),408
CCC(=O)Nc1cccc(C(=O)NCCC2=CSC3=NCCCN23)c1,4
CC(C)(NC(=O)c1cccs1)C(=O)N1CCCC2(CNC(=O)O2)C1 (stereo not drawn),1
Cc1cc(C)c(NC(=O)C(=O)NCCc2sc(-c3ccc(F)cc3)nc2C)c(C)c1,-49
CN(C)c1ncc(-c2cncnc2)c(C2CNCCO2)n1 (stereo not drawn),98
C[C@H]1CN([C@@H](C)CO)C(=O)CCCn2nncc2CO[C@H]1CN(C)C(=O)c1cc(-c2ccccc2)on1,-29
CCCCC(=O)Nc1ccc(C(=O)NC2(CO)CCCC2)cc1,-2
O=C(O)[C@H](O)[C@H](O)[C@@H](O)[C@H](O)[C@H](O)CO,14&18
CC(C)c1cc(=O)oc2c3c4c(cc12)CCCN4CCC3,12
C=CCN(Cc1ccc(F)cc1)C(=O)COC(C)C,-4
COc1ccc(-n2nnnc2/C=C/N(C)c2ccccc2)cc1,1
COC[C@H]1CCC[C@]12CN(C(=O)c1ccno1)CCO2,-22
Cc1ccc(-c2coc(-c3ccc(NC(=O)Cc4ccccc4C)cc3)n2)cc1,-12
Cc1ccccc1C1CCN(CCNC(=O)c2cn(-c3ccccc3)nn2)C1 (stereo not drawn),-11
Cc1nc(C(C)NC(=O)CCC(=O)Nc2ccc(F)c(Cl)c2)n[nH]1 (stereo not drawn),59
COc1ccc(-c2nc(N(C)C)nc(C)c2C)cn1,11
CC(=O)NC(C)c1ccc(-c2ccccc2C)cc1 (stereo not drawn),15

# 19 neighbouring compounds from above, for reference:
SMILES,Tg IFNy HTS
CCOC(=O)CSc1nc2ccccc2c(=O)n1CCc1ccc(OC)c(OC)c1,5
N#Cc1ccc(-c2ccc([C@@H]3[C@@H]4CN(C(=O)Nc5ccc6c(c5)OCO6)C[C@H]3N4)cc2)cc1,-50
S=C(NCC1(c2ccccc2)CCOCC1)Nc1ccccc1,-7
COc1ccc(N2C(=O)C3C(C2=O)N2CCCN2C3c2ccccc2OC)cc1 (stereo not drawn),16
Cc1noc(-c2ccc(CSCCC(=O)O)cc2)c1NC(=O)OC(C)c1ccccc1Cl (stereo not drawn),11
Cc1nonc1CN(C)C(=O)c1sc(Cc2ccccc2)nc1C,2
O=C(c1ccc2c(c1)OCO2)N1C[C@@H]2[C@H](c3ccccc31)[C@H](CO)N2C(=O)CC1CC1,-39
O=C1CCC(CCC(=O)N2CCN(c3ccccc3C(F)(F)F)CC2)N1 (stereo not drawn),-9
CCOc1cccc(C2c3[nH]c4ccccc4c3CCN2C(=O)c2cccc(N(C)C)c2)c1 (stereo not drawn),408
CCC(=O)Nc1cccc(C(=O)NCCC2=CSC3=NCCCN23)c1,4
CC(C)(NC(=O)c1cccs1)C(=O)N1CCCC2(CNC(=O)O2)C1 (stereo not drawn),1
Cc1cc(C)c(NC(=O)C(=O)NCCc2sc(-c3ccc(F)cc3)nc2C)c(C)c1,-49
CN(C)c1ncc(-c2cncnc2)c(C2CNCCO2)n1 (stereo not drawn),98
C[C@H]1CN([C@@H](C)CO)C(=O)CCCn2nncc2CO[C@H]1CN(C)C(=O)c1cc(-c2ccccc2)on1,-29
CCCCC(=O)Nc1ccc(C(=O)NC2(CO)CCCC2)cc1,-2
O=C(O)[C@H](O)[C@H](O)[C@@H](O)[C@H](O)[C@H](O)CO,14&18
CC(C)c1cc(=O)oc2c3c4c(cc12)CCCN4CCC3,12
C=CCN(Cc1ccc(F)cc1)C(=O)COC(C)C,-4
COc1ccc(-n2nnnc2/C=C/N(C)c2ccccc2)cc1,1

# Additional entries
SMILES,Tg IFNy HTS
Cc1ccc(C(=O)N2CCC3(CC2)NC(=O)c2ccc(F)cc2N3C)c(C)c1,17
COc1ccc(F)c(F)c1CN1CCCC(OCc2ccccn2)C1 (stereo not drawn),10
CCCS(=O)(=O)N1CCc2onc(Cn3cccc3)c2C1,12
CCCCCCCCNC(C)C(O)c1ccc(SC(C)C)cc1 (stereo not drawn),-78*!
C=C(C)C(=O)Nc1ccc(NC(C)C)cc1,13
Cc1nc(-c2ccc(F)cc2)nc2c1CCN(c1ncccn1)CC2,19
Cc1ccsc1[C@@H]1CCN(C(=O)Cn2cc(C)c(=O)[nH]c2=O)C[C@H]1O,158
O=C1NCC2(CCCN(C(=O)c3cnn4c3CCCC4)CC2)O1 (stereo not drawn),-21
O=C(c1ccc(-c2cncnc2)nc1)N1CCC(CCc2ccccc2)CC1,-1
Cc1nccn1CCC1CCCCN1C(=O)c1cc(C(C)C)no1 (stereo not drawn),-61
CCN1C[C@@H](COC)[C@]2(CCN(C(=O)COc3ccccc3)C2)C1,-2
COc1ccc2c3c([nH]c2c1)[C@H](CO)N(C(=O)NC(C)C)CC31CN(Cc2ccc(F)cc2)C1,-62
COCCCN1CCc2nc(SCc3nc(-c4ccc(OC)cc4)oc3C)[nH]c(=O)c2C1,34
CN(C)C(=O)[C@@]12CCCN(Cc3cccs3)C[C@@H]1CN(Cc1cnn(C)c1)C2,0
CCc1nc([C@H]2CN(C)C[C@@H]2C(=O)NCCn2cccn2)c(C)[nH]1,2
CC(C)(C)C(=O)N1CCOCC2(C1)CN(c1ccccc1)C(=O)CO2 (stereo not drawn),0
COc1ccc(NC(=O)c2c(O)c3ccccc3[nH]c2=O)cc1,178
Cc1nc(C)c(C(=O)N2CCCC(N(C)C)CC2)s1 (stereo not drawn),10
CC(=O)Nc1ncc(S(=O)(=O)Nc2cccc(-c3nncn3C)c2)s1,4
O=C(c1ccco1)N1CC[C@H]2[C@@H]1CC(=O)N2c1ccsc1,-4
Cc1oc(S(=O)(=O)N2CCCC2)cc1C(=O)NCCN1CCNC1=O,17
CCOC(=O)c1c(O)c(O)c(C(=O)OCC)n1-c1ccc(OC)cc1,27
COCC1c2nnn(C)c2CCN1C(=O)Cc1ccc(F)cc1OC (stereo not drawn),3
O=S(=O)(N1CCCCCC1)N1CCCN(S(=O)(=O)N2CCCCCC2)CC1,39
CCC(=O)Nc1ccc2c(c1)C(=O)N(C)C[C@@H](OC)[C@H](C)CN(C(=O)Cc1cccnc1)[C@H](C)CO2,114
# The listing continues.
SMILES,Tg IFNy HTS
O=c1c2ccccc2c(Br)cn1Nc1ccc(Br)cc1,-1
O=C1C(c2ccccc2)c2ccccc2N1Nc1ccc(Br)cc1 (stereo not drawn),-19
Cc1ccc(Nc2nc(C(=O)Nc3ccccc3Cl)nc3ccccc23)cc1,-58
CSc1nccc(N2CCCC3(CC2)CN(C)C(=O)O3)n1 (stereo not drawn),-52
CCc1cn[nH]c1C1CCCN(C(=O)c2n[nH]c3ccc(C)cc23)C1 (stereo not drawn),32
CN(CCc1cn[nH]c1)C(=O)c1ccc(CC2CCCNC2)cc1 (stereo not drawn),-3
Cc1ccc(C)c(NCc2n[nH]c(=S)n2-c2ccccc2)c1,5
CN(C)C[C@@H]1CCC[C@@H]2CN(Cc3ccn(C)n3)C[C@H]21,-66
COCc1ncc(CN2CCC(Cc3ccc(F)cc3)CC2)cn1,6
COc1ccc(Nc2nc(-c3nnc(-c4ccc(C)cc4)o3)nc3ccccc23)c(OC)c1,-65
CN(C)Cc1cncc2c1CCN(S(=O)(=O)c1cn(C)cn1)C2,6
Cc1ccccc1NC(=O)c1c(O)c2ccccc2[nH]c1=O,384
CCS(=O)(=O)N1CC[C@@H]2[C@@H](CO[C@H]2CNc2ncccn2)C1,1
Cc1nc2c(c(=O)[nH]1)CC[C@@H]1CN(C(=O)c3cc(F)cc(F)c3)C[C@H]21,-9
Cc1cccc(CN2CCN(Cc3cc4cc(F)ccc4n3C)CC2)c1,-69
CCn1cc(-c2csc(N)n2)c(C)n1,36
O=C(C[C@@H]1C=C[C@@H](NC(=O)C2CCC2)[C@@H](CO)O1)NC1CCCCC1,-35
CC[C@@]1(O)C(=O)OCc2c1cc1n(c2=O)Cc2cc3c([N+](=O)[O-])cccc3nc2-1,-80*
Cc1cc(C(=O)OCC(=O)Nc2nnc(C(C)C)s2)c2ccccc2n1,92
CCCCCCC1=NN(C(=O)c2ccc(C)cc2)C(O)(C(F)(F)F)C1 (stereo not drawn),-34
O=C(c1cn2c(n1)COCC2)N1CCN(c2cccc(Cl)c2)CC1,10

# An excerpt (hit frequency here may not be typical).
